ID4 binder: binds human ID4 protein on microarray. small molecule microarray, Flag-ID4 binding, fluorescence F/B. calls only. 31,000 tested, 1.2% active;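 active = spot signal over background at p below 0.07 in all four prints; compounds were printed on slides so no solution concentration is given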;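 also: a binder raises fluorescence above local background on the spot; about 2 pmol printed per array spot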
Target sequence (P47928 whole entry, looked up): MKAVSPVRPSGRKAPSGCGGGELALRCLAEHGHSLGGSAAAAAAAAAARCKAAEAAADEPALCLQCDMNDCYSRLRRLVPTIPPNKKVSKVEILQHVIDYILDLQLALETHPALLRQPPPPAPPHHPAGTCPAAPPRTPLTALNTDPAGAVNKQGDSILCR
Calls only; i = inactive; + = active, no number. A portion of the library. The share of hits here may be higher or lower than overall.

SMILES	ID4 binder
C=CC1CCC(N(Cc2ccccc2)S(=O)(=O)c2ccc(C)cc2)C(O)C1 (stereo not given)	i
CCCn1c(SCc2nc(-c3cccs3)no2)nnc1-c1ccncc1	i
C[C@H]1CN([C@@H](C)CO)C(=O)c2cc(-c3ccc(C#N)cc3)cnc2O[C@@H]1CN(C)CC1CCCCC1	i
CCNC(=O)C[C@@H]1C=C[C@H](NC(=O)C2CCC2)[C@@H](CO)O1	i
C[C@H](CO)N1C[C@H](C)[C@@H](CN(C)C(=O)c2ccc(F)cc2)Oc2ncc(C3=CCCC3)cc2C1=O	i
CCCC#Cc1cnc2c(c1)C(=O)N([C@@H](C)CO)C[C@H](C)[C@H](CN(C)C(=O)Nc1cc(F)ccc1F)O2	i
COC(=O)C[C@H]1C[C@H]2c3cc(NC(=O)Nc4ccccc4F)ccc3O[C@H]2[C@@H](CO)O1	i
COc1c(N2CCNC(C)C2)c(F)cc2c(=O)c(C(=O)O)cn(C3CC3)c12 (stereo not given)	+
COc1ccc(C#Cc2ccc3c(c2)[C@]2(C(=O)N3)[C@H](c3ccc(OCCO)cc3)N3[C@H](c4ccccc4)[C@H](c4ccccc4)OC(=O)[C@H]3[C@@H]2C(N)=O)cc1	i
CCCNC(=O)N[C@H]1C=C[C@H](CC(=O)NCCc2ccccc2)O[C@H]1CO	i
CO[C@H](CN(C)Cc1ccc(-c2ccccn2)cc1)[C@@H](C)CN(C(=O)Nc1ccc(F)cc1)[C@H](C)CO	i
Cc1ccc(NC(=O)CCCN2C(=O)c3ccccc3C2=O)cc1	i
O=C(CSc1ccccc1)Nc1cccc(Oc2ccc3c(c2)C(=O)NC3=O)c1	i
CNC(=O)CN(c1cc([N+](=O)[O-])ccc1OC)S(C)(=O)=O	i
COC(=O)c1cc(NC(=O)COc2ccccc2C)cc(C(=O)OC)c1	i
CC(C)C#Cc1cnc2c(c1)C(=O)N([C@H](C)CO)C[C@H](C)[C@H](CN(C)Cc1ccc3c(c1)OCO3)O2	i
O=C(O)C(c1ccccc1)N1C(=O)/C(=C/c2ccncc2)SC1=S (stereo not given)	i
Cc1nc2ncccn2c1-c1csc(NCc2ccco2)n1	i
CCc1nnc(NS(=O)(=O)c2ccc(NC(=O)c3ccc(Br)cc3)cc2)s1	i
O=C(/C=C\c1ccc2c(c1)OCO2)OCn1nnc2ccccc2c1=O	i
C/C=C/c1cnc2c(c1)C(=O)N([C@@H](C)CO)C[C@@H](C)[C@@H](CN(C)CC1CCOCC1)O2	i
O=C(CCS(=O)(=O)c1ccc(Br)s1)NC(c1ccccc1)c1ccccc1	i
CS(=O)(=O)N(CC(=O)NC1CC2CCC1C2)c1cccc(C(F)(F)F)c1 (stereo not given)	i
COc1ccc(NC(=O)N(C)C[C@H]2Oc3ncc(-c4ccc(C#N)cc4)cc3C(=O)N([C@H](C)CO)C[C@@H]2C)cc1	i
Cc1ccc(S(=O)(=O)N(C)CC(=O)Nc2ccc(Br)cc2C)cc1	i
C[C@@H]1CN([C@@H](C)CO)C(=O)c2cc(C#CCC3CCCC3)cnc2O[C@H]1CN(C)C(=O)CC1CC1	i
Cc1ccc(C(=O)NCCNc2ccccc2[N+](=O)[O-])cc1	i
Cc1ccc(CN(C)C[C@H]2OCc3cn(nn3)CCCC(=O)N([C@H](C)CO)C[C@@H]2C)cc1	i
CCCCNC(=O)NS(=O)(=O)c1ccc(C)cc1	i
CCC(=O)N[C@H]1C=C[C@@H](CC(=O)NCc2ccccc2OC)O[C@@H]1CO	i
CS(=O)(=O)c1ccc(C2=C(c3ccccc3)C(=O)OC2)cc1	i
Cn1c(SCC(=O)Nc2ccccc2C(F)(F)F)nnc1-c1ccc(F)cc1	i
CCOc1ccc2c(c1)SC(CC(=O)Nc1ccccc1[N+](=O)[O-])C(=O)N2 (stereo not given)	i
CC(C)CC#Cc1cnc2c(c1)C(=O)N([C@H](C)CO)C[C@H](C)[C@@H](CN(C)Cc1ccccn1)O2	i
Cc1ccc(S(=O)(=O)N[C@@H]2C=C[C@@H](CC(=O)O)O[C@H]2CO)cc1	i
COc1ccccc1NC(=O)C1=C(C)Nc2ncnn2C1c1ccccc1OCc1ccccc1 (stereo not given)	i

3 compounds out of the list, ordered by length of the SMILES, lowest first.
SMILES	ID4 binder
Cc1ccc(NC(=O)CCCN2C(=O)c3ccccc3C2=O)cc1	i
Cc1ccc(S(=O)(=O)N(C)CC(=O)Nc2ccc(Br)cc2C)cc1	i
C/C=C/c1cnc2c(c1)C(=O)N([C@@H](C)CO)C[C@@H](C)[C@@H](CN(C)CC1CCOCC1)O2	i

Other results follow:
SMILES	ID4 binder
CO[C@@H]1CN(C)C(=O)c2ccc(NC(=O)c3ccccc3F)cc2OC[C@@H](C)N(CC2CC2)C[C@H]1C	i
CSc1ccccc1C(=O)Nc1ccccc1C(=O)NCc1ccco1	i
CCCNC(=O)N[C@@H]1CC[C@H](CC(=O)NC2CCC2)O[C@H]1CO	i
C[C@H]1CN([C@@H](C)CO)C(=O)c2cc(-c3ccc(C(=O)N(C)C)cc3)cnc2O[C@@H]1CN(C)C	i
O=C(C[C@@H]1CC[C@H](NC(=O)CC2CC2)[C@H](CO)O1)NCC(F)(F)F	i
COc1cccc(-c2cnc3c(c2)C(=O)N([C@@H](C)CO)C[C@H](C)[C@H](CN(C)Cc2ccc(F)cc2)O3)c1	i
Cc1oc(C(C)(C)C)cc1-c1cc(N)n(-c2ccc(I)cc2)n1	i
O=C1c2nc3cc(-c4ccccc4)[nH]n3c(=O)c2CN1Cc1ccccc1	i
CCC(=O)N[C@H]1CC[C@@H](CC(=O)OC)O[C@H]1CO	i
C[C@@H]1CN([C@H](C)CO)C(=O)c2cc(C#CCC3CCCC3)cnc2O[C@H]1CN(C)C(=O)CN(C)C	i
CC(=O)N[C@@H]1C=C[C@H](CC(=O)NCC2CCCCC2)O[C@@H]1CO	i
O=C(COc1cccc([N+](=O)[O-])c1)Nc1cccc(I)c1	i
CC1=CC(=O)CC2C1(C)CCC(C)C2(C)CCC(C)CC(=O)O (stereo not given)	i
Cc1cc(C)c(OCC(=O)Nc2cccnc2)c(Br)c1	i
CC(=O)C(Sc1nc(N2CCOCC2)nc(N2CCOCC2)n1)C(=O)Nc1ccccc1 (stereo not given)	i
COc1ccc(NC(=O)CN(c2cc(Cl)c(Cl)cc2Cl)S(C)(=O)=O)cc1Cl	i
COC(=O)[C@@H]1[C@H]2C[C@H]3c4[nH]c5ccccc5c4CCN3C[C@@H]2CC[C@@H]1O	i
C[C@H](CO)N1C[C@H](C)[C@@H](CN(C)C)Oc2cc(C#CCC3CCCC3)ccc2S1(=O)=O	i
O=C(C[C@@H]1CC[C@H](NC(=O)C2CCC2)[C@H](CO)O1)NCc1ccccc1Cl	i
CCCN1C[C@@H](C)[C@H](OC)CN(C)C(=O)c2ccc(NC(=O)c3ccccn3)cc2OC[C@H]1C	i
O=C(C[C@@H]1C[C@@H]2c3cc(NC(=O)Nc4ccccc4)ccc3O[C@@H]2[C@@H](CO)O1)NC1CCCC1	i
O=C(C[C@@H]1CC[C@H](NC(=O)C2CCOCC2)[C@@H](CO)O1)NCC1CCCCC1	i
CC(NS(=O)(=O)c1ccc(F)cc1)C(=O)Nc1cccc(C(F)(F)F)c1 (stereo not given)	i
CC(C)CC#Cc1cnc2c(c1)C(=O)N([C@@H](C)CO)C[C@H](C)[C@@H](CN(C)C(=O)Nc1cccc(F)c1)O2	i
Cc1ccc(NC(=O)CSc2nc3ccccc3s2)cc1[N+](=O)[O-]	i
CC(C)CC#Cc1cnc2c(c1)C(=O)N([C@H](C)CO)C[C@H](C)[C@@H](CN(C)Cc1ccccc1F)O2	i
COC(=O)c1[nH]nc2c1C(=O)N(C1CCCCC1)C2=O	i
Cc1c(NC(=O)CSc2nc3cc(C(=O)N4CCCC4)ccc3s2)c(=O)n(-c2ccccc2)n1C	i
Cc1cc(OCC(=O)Nc2cccc(C(=O)O)c2)cc(C)c1Cl	i
Cc1cc(-c2ccccc2)nc(SCC(=O)O)n1	i
CNC[C@H]1Oc2cc(C#CC(C)(C)O)ccc2S(=O)(=O)N([C@@H](C)CO)C[C@@H]1C	i
CCCC#Cc1ccc2c(c1)O[C@H](CN(C)Cc1ccc3c(c1)OCO3)[C@H](C)CN([C@H](C)CO)S2(=O)=O	i
COC(=O)c1ccccc1NC(=O)C(C)NS(=O)(=O)c1ccc(C)cc1 (stereo not given)	i
C[C@@H]1CN([C@@H](C)CO)C(=O)c2cc(C#Cc3ccccc3F)cnc2O[C@H]1CN(C)S(C)(=O)=O	i
COc1ccc(F)cc1S(=O)(=O)NCc1cccnc1	i
Cc1ccc(N(C(C)C(=O)NC2CCCCC2)S(C)(=O)=O)cc1C (stereo not given)	i
COC(=O)c1cccc(NC(=O)CN(c2cccc(F)c2)S(C)(=O)=O)c1C	i
C[C@H](CO)N1C[C@H](C)[C@@H](CN(C)C)Oc2cc(/C=C/c3ccccc3)ccc2S1(=O)=O	i
CS(=O)(=O)N(CC(=O)Nc1cc(Cl)cc(Cl)c1)c1cccc([N+](=O)[O-])c1	i
COc1cc2c(cc1NC(=O)COc1ccc(Br)cc1C)oc1ccccc12	i
N#CC1c2ccc(Br)cc2C=CC1c1ccccc1 (stereo not given)	i
OC(CSc1nccc(-c2ccc3c(c2)OCCO3)n1)C(F)(F)F (stereo not given)	i
C[C@H]1CN([C@@H](C)CO)S(=O)(=O)c2ccc(C3=CCCC3)cc2O[C@@H]1CN(C)Cc1ccccc1	i
COc1ccc(Cl)cc1NC(=O)Cn1cnc2sc3c(c2c1=O)CCC(C)C3 (stereo not given)	i
O=C(C[C@@H]1C[C@@H]2c3cc(NS(=O)(=O)c4ccc(F)cc4)ccc3O[C@@H]2[C@@H](CO)O1)N1CCOCC1	i
CC(=O)c1c(C)oc2ccc(N(C(=O)c3ccncc3)S(=O)(=O)c3ccc(F)cc3)cc12	i
COc1ccc(-c2nc(SCC(=O)Nc3ccc4ccccc4c3)n[nH]2)cc1	i
COc1ccc(C#Cc2ccc3c(c2)[C@]2(C(=O)N3)[C@H](c3ccc(OCCO)cc3)N3[C@H](c4ccccc4)[C@H](c4ccccc4)OC(=O)[C@H]3[C@@H]2C(=O)NC[C@H](O)c2ccccc2)cc1	i

Of the compounds above, six contain a nitro group on carbon.
SMILES	ID4 binder
CNC(=O)CN(c1cc([N+](=O)[O-])ccc1OC)S(C)(=O)=O	i
Cc1ccc(C(=O)NCCNc2ccccc2[N+](=O)[O-])cc1	i
CCOc1ccc2c(c1)SC(CC(=O)Nc1ccccc1[N+](=O)[O-])C(=O)N2 (stereo not given)	i
O=C(COc1cccc([N+](=O)[O-])c1)Nc1cccc(I)c1	i
Cc1ccc(NC(=O)CSc2nc3ccccc3s2)cc1[N+](=O)[O-]	i
CS(=O)(=O)N(CC(=O)Nc1cc(Cl)cc(Cl)c1)c1cccc([N+](=O)[O-])c1	i

New compounds follow:
SMILES	ID4 binder
O=C(CN1C2=NCCN2c2ccccc21)c1ccc(Cl)cc1Cl	i
O=C(CSc1nnc(-c2ccc([N+](=O)[O-])cc2)n1-c1ccccc1)NC1CCCCC1	i
CC(=O)N1c2ccccc2NC(=O)C1CC(=O)Nc1ccccc1Cl (stereo not given)	i
Cc1ccccc1-c1cnc2c(c1)C(=O)N([C@H](C)CO)C[C@H](C)[C@@H](CN(C)CC1CCCC1)O2	i
CC(=O)O[C@H]1[C@H](Oc2ccccc2COC(=O)C2(O)C=CCCC2=O)O[C@H](COC(=O)C2(O)C=CCCC2=O)[C@@H](O)[C@@H]1O (stereo not given in full)	i
C[C@@H]1CN([C@H](C)CO)S(=O)(=O)c2ccc(C#CCN(C)C)cc2O[C@@H]1CN(C)CC1CC1	i
CCNC(=O)C[C@H]1C=C[C@@H](NC(=O)C2CC2)[C@H](CO)O1	i
CN(CC(=O)Nc1ccccc1C#N)S(=O)(=O)c1cc(Cl)ccc1Cl	i
C[C@H](CO)N1C[C@H](C)[C@H](CN(C)C(=O)C2CCCCC2)Oc2ncc(C3=CCCC3)cc2C1=O	i
C[C@H]1CN([C@@H](C)CO)C(=O)c2cc(C#Cc3cccc(F)c3)cnc2O[C@@H]1CN(C)C(=O)C1CC1	i
CC(C)NC(=O)N[C@@H]1C=C[C@@H](CC(=O)NCc2ccc(Oc3ccccc3)cc2)O[C@@H]1CO	i
C[C@H](CO)N1C[C@H](C)[C@H](CN(C)Cc2ccc(F)cc2)Oc2ncc(C#CCN(C)C)cc2C1=O	i

In another format: entries from further up.
canonical_smiles,ID4 binder
CCC(=O)N[C@H]1CC[C@@H](CC(=O)OC)O[C@H]1CO,i
C[C@@H]1CN([C@H](C)CO)C(=O)c2cc(C#CCC3CCCC3)cnc2O[C@H]1CN(C)C(=O)CN(C)C,i

More results:
SMILES	ID4 binder
N#C[C@@H]1N[C@H](CO)[C@@H]1c1ccccc1	i
CCOC(=O)c1c(NC(=O)CSc2nc(C)c3c(n2)CCCC3)sc2c1CCCC2	i
COc1ccc(C(C)(C)C)cc1S(=O)(=O)NCC1CCCO1 (stereo not given)	i
CCC(=O)N(C)C[C@@H]1Oc2ncc(C#CCC(C)C)cc2C(=O)N([C@@H](C)CO)C[C@H]1C	i
Cc1ccc(-c2ccc3c(c2)O[C@H](CN(C)Cc2ccc(F)cc2)[C@H](C)CN([C@@H](C)CO)S3(=O)=O)cc1	i
COc1ccc(NC(=O)CSc2ncnc3c2sc2nc(N4CCOCC4)c4c(c23)CC(C)(C)OC4)cc1	i
CS(=O)(=O)N(CC(=O)Nc1ccc(I)cc1)c1ccc2c(c1)OCCO2	i
CCC(=O)N[C@@H]1C=C[C@H](CC(=O)NCc2ccccc2F)O[C@H]1CO	i
O=C(CSc1nnc(-c2ccc([N+](=O)[O-])cc2)n1-c1ccccc1)Nc1ccccc1Cl	i
Clc1ccc(-c2csc3ncnc(SCc4ccco4)c23)cc1	i
CCNC(=O)c1c(NC(=O)COc2ccc(Cl)cc2Cl)sc2c1CCCC2	i

Assay outcomes (PubChem BioAssay)
